Bioassay records (PubChem BioAssay)
D2 ag – Beta-Arrestin HTS for Positive Allosteric Modulators of the Human D2 Dopamine Receptor: Agonists; DiscoveRx PathHunter D2 beta-arrestin, luminescence, 90 min; 100% = 57 uM dopamine signal; activation, % (no concentration beside the values); D(2) dopamine receptor (Homo sapiens), P14416; AID 624465, 2012; 360,000 tested, 0.084% active; in the data active = activation above about 40%; inconclusive = about 15% to 40%; inactive = below about 15%; also: compound concentration not given in the record; the text of the record calls up to 30% inactive
Target sequence (P14416 whole entry, looked up): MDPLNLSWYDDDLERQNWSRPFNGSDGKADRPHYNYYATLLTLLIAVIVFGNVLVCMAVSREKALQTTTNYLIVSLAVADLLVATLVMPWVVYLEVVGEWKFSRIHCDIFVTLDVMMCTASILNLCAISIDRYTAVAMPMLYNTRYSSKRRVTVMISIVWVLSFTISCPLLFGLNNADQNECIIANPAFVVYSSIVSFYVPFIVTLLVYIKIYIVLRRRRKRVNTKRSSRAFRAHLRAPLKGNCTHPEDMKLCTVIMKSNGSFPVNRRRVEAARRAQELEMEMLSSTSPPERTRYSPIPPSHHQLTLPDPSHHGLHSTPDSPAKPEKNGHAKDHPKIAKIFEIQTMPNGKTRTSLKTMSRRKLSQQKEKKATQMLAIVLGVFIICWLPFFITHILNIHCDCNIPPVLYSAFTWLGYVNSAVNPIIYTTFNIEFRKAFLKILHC
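Agonist mode: compounds alone added to overnight-plated D2 PathHunter cells for 90 min at 37 C, with 57 uM final dopamine (EC100) defining full response. Beta-arrestin recruitment detected by chemiluminescent reagent, read after 1 h at ambient temperature.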
gsp agonist – qHTS for Agonist of gsp, the Etiologic Mutation Responsible for Fibrous Dysplasia/McCune-Albright Syndrome: qHTS. gsp mutant cells, cAMP HTRF, 30 min; control for the full effect not named in the record. Potency, µM (top dose mostly 76.9 µM), for the others: top-dose activation (cAMP increase), usual class: activators. 340,000 tested, 0.13% active. AID 624287, 2012; active = well fitted activation curve with a large enough effect; inconclusive = small, poorly fitted or top-dose-only effect, or another doubt; inactive = no such curve, though single readings can be large or run the other way; cell line not stated here;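 also: phosphodiesterase inhibitor Ro 20-1724 added with compounds to block cAMP breakdown; potency is read from the fitted curve at half-maximal effect; nearly all actives have a fitted effect of over 60% in size; about a fifth of the inactives were tested at one dose only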
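Cells stably selected in G418 were plated at 2000/well, grown 16-24 hr, then given compounds in DMSO with the PDE inhibitor […] (300 uM solution added) for 30 min at 37C; cAMP was read by HTRF.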
Menin-MLL FL inh – qHTS Assay for Inhibitors Targeting the Menin-MLL Interaction in MLL Related Leukemias: Competition With Fluorescein Labeled MLL-derived Peptide; Fluorescence polarization, fluorescein-MLL peptide displacement from menin; FP activity change, % at 61.4 µM; 290,000 tested, under 10 active; AID 1766, 2009; inconclusive = falling polarisation curve, or a change in total fluorescence; inactive = total fluorescence flat and polarisation flat or rising; no compound was filed as active; the % refers to the polarisation; negative = inhibition;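 also: % of control where 0% means no effect; inhibitors lower the polarisation; unlabelled MLL peptide was the positive control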
Sfp PPTase inh – qHTS Assay for Inhibitors of Bacillus subtilis Sfp phosphopantetheinyl transferase (PPTase); 4'-phosphopantetheinyl transferase ffp (Bacillus subtilis), Q9F4F7; Biochemical Sfp PPTase activity, qHTS; Potency, µM, inactives show max response, negative = inhibition, most hits filed as inhibitors; 310,000 tested, 3.5% active; active = well fitted inhibition curve with a large enough effect; inconclusive = small, poorly fitted or top-dose-only effect, or another doubt; inactive = no such curve, though single readings can be large or run the other way;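 also: the enzyme is Sfp with the accession as filed and its product quenches rhodamine fluorescence; potency is read from the fitted curve at half-maximal effect; 0% = enzyme reaction without inhibitor and -100% = no enzyme wells; top concentration of the series not given in the record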
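Buffer: 50 mM Hepes-Na pH 7.6, 10 mM MgCl2, 0.01% Nonidet P-40, 0.01% BSA. Enzyme 15 nM, pre-exposed to compound 15 min; substrates then added and fluorescence change tracked over 30 min.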
gsp antagonist – qHTS for Antagonists of gsp, the Etiologic Mutation Responsible for Fibrous Dysplasia/McCune-Albright Syndrome: qHTS; gsp-mutant cells, cAMP HTRF, 30 min; control for the full effect not named in the record; Potency, µM (highest dose often 76.9 µM), inactives show at the highest dose activity change, negative = inhibition, hits mostly inhibitors; 340,000 tested, 0.4% active; active = falling curve of any shape with a large fitted effect; inconclusive = falling curve, mostly with a smaller effect; inactive = flat or rising curve; cell line not stated here;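 also: intracellular cAMP measured with PDE inhibitor Ro 20-1724 present during compound exposure; potency is read from the fitted curve at half-maximal effect; % is scaled to controls: 0 for no effect and ±100 for the full control effect; nearly all actives have a fitted effect of over 65% in size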
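HTRF cAMP measurement after 30 min RT detection following 30 min, 37C compound treatment alongside […] (added as 300 uM solution) in G418-selected cells seeded at 2000/well and grown 16–24 h.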
ClpP mod – qHTS Assay for Activators of ClpP; ATP-dependent Clp protease proteolytic subunit (Bacillus subtilis (strain 168)), P80244; purified B. subtilis ClpP, FRET peptide cleavage, 20 min; Potency, µM (doses to about 57.5 µM), for the others: at the highest dose activity change, negative = active; 340,000 tested, 1.9% active; AID 651965, 2013; active = well fitted falling curve with a large enough effect; inconclusive = small, poorly fitted or top-dose-only effect; inactive = no such curve, though single readings can be large or run the other way; also: potency is read from the fitted curve at half-maximal effect; the source files actives as falling curves though it sought activators and does not explain the sign; nearly all actives have a fitted effect of over 65% in size; many hits overshoot -100%
Target sequence (P80244 whole entry, looked up): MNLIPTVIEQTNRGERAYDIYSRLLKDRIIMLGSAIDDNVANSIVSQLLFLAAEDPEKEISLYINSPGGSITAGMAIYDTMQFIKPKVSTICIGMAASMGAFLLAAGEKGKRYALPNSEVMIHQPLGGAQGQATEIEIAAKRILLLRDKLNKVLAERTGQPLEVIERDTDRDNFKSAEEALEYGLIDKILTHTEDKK
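FRET quenching reversal measured ClpP activation: 10 microg/mL B. subtilis ClpP at pH 8 with the FRET-FV decapeptide, read at 430 nm after 320 nm excitation. The 20-min minus 0-min signal was scaled between DMSO/no-enzyme wells and ADEP (5.8 microM final).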
PINK1 modulator – A Quantitative High throughput Screen to Identify Chemical Modulators of PINK1 Expression; PINK1 immunofluorescence, high-content cytometry, 24 h; AID 624263, 2012; Potency, µM (top dose mostly 76.6 µM), inactives show at the top dose activation (PINK1 increase), hits mostly activators; 410,000 tested, 0.2% active; active = well fitted activation curve with a large enough effect; inconclusive = small, poorly fitted or top-dose-only effect; inactive = flat fitted curve, though single readings scatter; cell line not stated here;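 also: potency is read from the fitted curve at half-maximal effect; % of control where 0% means no effect; nearly all actives have a fitted effect of over 65% in size; a mitochondrial uncoupler was the plate control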
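Decision-based qHTS: stable cells, 24 h exposure to five compound concentrations, CCCP as control. Fixed cells stained for PINK1 plus nuclear, mitochondrial and cell markers, cytometer read.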
An asterisk follows results filed as active; ? = inconclusive; . = not tested or not shown; [ ] = remark or other dose. Compounds were not picked by outcome; 5.1% or so of the library scored in one or more.

1: Cc1nc(C(=O)NC2CC2)sc1C1(C)CC(c2cccc([N+](=O)[O-])c2)=NO1 (stereo unspecified)
2: CC(c1ccccc1)N1C(=O)OC(C)(C)C1(C)O (stereo unspecified)
3: COCc1nnc(NC(=O)c2ccccc2Oc2ccccc2)s1
4: CCCCCC(=O)NNC(=O)c1ccc(-c2ccccc2)cc1
5: COc1ccc(CNC(=O)CN(CCC(C)C)S(=O)(=O)c2ccc3c(c2)OCCO3)cc1
6: O=C(O)/C=C/c1ccc(OCc2cccc(F)c2)cc1
7: CCC[C@H]1COCCS(=O)(=O)N1Cc1ccccc1F
8: CC(C)(C)c1ccc(C2C(C(=O)c3ccco3)=C(O)C(=O)N2CC2CCCO2)cc1 (stereo unspecified)
Screen / compound no.	1	2	3	4	5	6	7	8
D2 ag	4.3	1.8	-2.1	2.3	-2.0	-2.2	-0.5	-3.0
gsp agonist	.	-34%[inhibitor]	3%	-57%	-49%[inhibitor]	13%[15.4 µM]	.	?
Menin-MLL FL inh	-2.6	.	-0.2	4.0	3.3	-8.3	1.3	-3.8
Sfp PPTase inh	18%	.	5%	-3%	-12%	1%	11%	-6%
gsp antagonist	-3%	1%	-1%	17%	2%	.	-6%	-16%
ClpP mod	0.0%	-0.7%	-2.3%	-3.1%	-0.5%	.	-1.4%	.
PINK1 modulator	0.8%	-2.8%	-0.1%	0.5%[38.3 µM]	0.8%	-0.8%	1.1%	0.0%

9: CC(CNc1ccc([N+](=O)[O-])cc1)NC(=O)c1ccccc1Br (stereo unspecified)
10: O=C(O)CCc1ccc(-c2cccs2)n1NC(=O)c1ccc(Cl)cc1Cl
11: COc1ccc(N2CCN(C3CCCN(C(=O)CSC)C3)CC2)cc1 (stereo unspecified)
12: CC1=CC(C)(C)N2C(=O)C3(C(C#N)=C(N)Oc4cc(O)ccc43)c3cccc1c32 (stereo unspecified)
13: O=C(/C=C/[C@H]1O[C@@H](n2cnc3c(NC(=O)c4ccccc4)ncnc32)[C@H](O)[C@@H]1O)NCc1ccco1
14: COC(=O)C1C2CC3c4[nH]c5cc(OC)ccc5c4CCN3CC2CC(OC(=O)CC(C)=O)C1OC (stereo unspecified)
15: CC1=C(C(=O)OCc2ccccc2)C(c2ccsc2)C(C#N)=C(N)O1 (stereo unspecified)
16: COC(=O)c1sc2ncccc2c1OCc1cccc(Cl)c1
Screen / compound no.	9	10	11	12	13	14	15	16
D2 ag	-3.6	-0.5	-5.9	-1.7	-1.5	6.2	-2.4	-3.6
gsp agonist	7%	6%	-7%	-42%[inhibitor]	.	10%	-36%[inhibitor]	-30%
Menin-MLL FL inh	0.3	0.0	0.2	1.7	.	.	0.9	6.7
Sfp PPTase inh	10%	-7%	-6%	-2%	.	.	-8%	-12%
gsp antagonist	0%	-16%	7%	?	.	-8%	-7%	?
ClpP mod	0.5%	-7.0%	-9.3%	-2.0%	-1.6%	.	-0.3%	-12%
PINK1 modulator	4.5%[38.3 µM]	0.5%[38.3 µM]	1.4%	3.3%	2.3%	?	0.5%	0.3%

17: COc1cc(/C=C/C(=O)OCC(=O)NC(=O)NC(C)C)ccc1OCC#N
18: CCOC(=O)c1[nH]c(C)c(C(=O)OCCN2C(=O)c3ccccc3C2=O)c1C
19: COCC(=O)N1CCC2(CC1)CN(c1ccncc1)C2
20: C[C@H](CO)N1C[C@H](C)[C@@H](CN(C)C(=O)c2ccc3ccn(C)c3c2)OCc2cnnn2CCCC1=O
21: CN/C=C1\C(=O)C(C)(C)Oc2ccc3ccc(=O)oc3c21
22: Cc1nc(NCCc2ccccc2)c(C#N)c(C)c1[N+](=O)[O-]
23: C/C(=N\NC(=O)Nc1ccccc1)c1ccc2ccccc2c1
24: CC(Oc1ccc2c(c1)c1ccnc3c4ccccc4c(=O)n2c13)C(=O)NCCN1CCOCC1 (stereo unspecified)
Screen / compound no.	17	18	19	20	21	22	23	24
D2 ag	-3.5	-0.6	.	3.6	0.5	1.4	-4.8	7.0
gsp agonist	5%[15.4 µM]	-3%	.	-71%[inhibitor]	-3%	2%	10%[15.4 µM]	.
Menin-MLL FL inh	3.2	0.5	0.7	.	-0.9	2.2	-0.3	0.8
Sfp PPTase inh	6%	-7%	14%	.	18%	-3%	17%	24%
gsp antagonist	6%	-6%	.	.	-8%	-17%	-3%	-2%
ClpP mod	1.4%	0.6%	.	-16%	-2.0%	1.0%	-0.4%	4.5%
PINK1 modulator	-1.5%	6.2%	0.6%	0.1%	1.4%	1.2%	-3.4%	0.0%

7 entries already listed, ordered by number of heavy atoms, rising:
19: COCC(=O)N1CCC2(CC1)CN(c1ccncc1)C2
21: CN/C=C1\C(=O)C(C)(C)Oc2ccc3ccc(=O)oc3c21
16: COC(=O)c1sc2ncccc2c1OCc1cccc(Cl)c1
23: C/C(=N\NC(=O)Nc1ccccc1)c1ccc2ccccc2c1
15: CC1=C(C(=O)OCc2ccccc2)C(c2ccsc2)C(C#N)=C(N)O1 (stereo unspecified)
17: COc1cc(/C=C/C(=O)OCC(=O)NC(=O)NC(C)C)ccc1OCC#N
20: C[C@H](CO)N1C[C@H](C)[C@@H](CN(C)C(=O)c2ccc3ccn(C)c3c2)OCc2cnnn2CCCC1=O
Screen / compound no.	19	21	16	23	15	17	20
D2 ag	.	0.5	-3.6	-4.8	-2.4	-3.5	3.6
gsp agonist	.	-3%	-30%	10%[15.4 µM]	-36%[inhibitor]	5%[15.4 µM]	-71%[inhibitor]
Menin-MLL FL inh	0.7	-0.9	6.7	-0.3	0.9	3.2	.
Sfp PPTase inh	14%	18%	-12%	17%	-8%	6%	.
gsp antagonist	.	-8%	?	-3%	-7%	6%	.
ClpP mod	.	-2.0%	-12%	-0.4%	-0.3%	1.4%	-16%
PINK1 modulator	0.6%	1.4%	0.3%	-3.4%	0.5%	-1.5%	0.1%

Following part
25: Cc1cc(C)cc(OCC(=O)N2CCN(c3ncccn3)CC2)c1
26: O=C(CN1CCCCCC1)N/N=C/c1ccc2ccccc2c1
27: CC(=O)C1=C(O)C(=O)N(Cc2ccco2)C1c1ccccc1 (stereo unspecified)
28: N#Cc1ccc(-c2nnnn2-c2ccc3c(c2)OCO3)cc1
29: Cc1nnc(SCC(=O)NCCOc2ccc(Cl)cc2)n1-c1ccccc1
30: COc1ccc(NC(=O)C2(C)CCN2Cc2cccc(OC)c2F)cc1OC (stereo unspecified)
31: COc1cc(CCC(=O)OCC(=O)Nc2sccc2C(N)=O)cc(OC)c1OC
32: CCN(CC(=O)Nc1c(F)cccc1F)C(=O)c1cn2ccccc2n1
Screen / compound no.	25	26	27	28	29	30	31	32
D2 ag	-2.5	2.5	1.9	-1.6	-1.9	7.3	8.8	5.8
gsp agonist	10%[15.4 µM]	0%	13%	-12%	1%	.	5%[15.4 µM]	13%
Menin-MLL FL inh	.	1.7	-1.1	-2.2	8.1	.	.	.
Sfp PPTase inh	.	-18%	56µM*	-6%	3%	.	.	.
gsp antagonist	-5%	15%	7%	-3%	8%	.	?	4%
ClpP mod	0.0%	?	-8.1%	0.9%	-4.5%	-2.3%	.	?
PINK1 modulator	-0.8%	0.9%	0.3%[38.3 µM]	-1.6%	0.3%	1.0%	-2.9%	-1.2%

33: COc1ccc(/C=C2\Sc3ccc(C(=O)NC4CC4)cc3N(C)C2=O)cc1OC
34: CCOc1cccc(CN2CCC(n3nccc3NC(=O)C3CC3)CC2)c1O
35: COc1ccc(S(=O)(=O)N2CCCCC2)cc1NC(=O)Cc1cccc(C(F)(F)F)c1
36: N#Cc1c(-c2cccnc2)c2c([nH]c1=O)-c1ccccc1OC2
37: CC(OC(=O)c1nsc(Cl)c1Cl)C(=O)NC(C)(C)C (stereo unspecified)
38: Oc1ccc(-c2nnc(Nc3ccccc3)c3ccccc23)cc1
39: COCCNc1cc(-c2ccccc2C(F)(F)F)ncn1
40: Oc1cccc(NC(=S)N=Nc2c(O)[nH]c3ccc(Br)cc23)c1
Screen / compound no.	33	34	35	36	37	38	39	40
D2 ag	-0.1	-4.8	0.3	-3.1	-5.2	-2.9	.	-4.2
gsp agonist	-8%	-4%[15.4 µM]	?	13%	16%	?	.	-23%[15.4 µM]
Menin-MLL FL inh	2.5	.	.	-14	3.9	1.6	-1.0	4.7
Sfp PPTase inh	1%	10%	.	11%	-2%	-21%	-26%	-10%
gsp antagonist	9%	8%	6%	-11%	-4%	0%	.	-6%
ClpP mod	-0.7%	-28%	-1.7%	4.4%	-0.1%	-2.9%	.	.
PINK1 modulator	3.5%	0.1%	?	4.2%	-0.5%	-0.9%	0.3%	-1.4%

41: Cc1ccccc1CSc1[nH]c(=O)ncc1C
42: CC(=O)c1ccc(NC(=O)Cn2cnc(S(=O)(=O)N3CCCC3)c2)cc1
43: CN(C)C(=O)C12CCC(C)(C(=O)C1Br)C2(C)C (stereo unspecified)
44: C[C@@H]1CC[C@@]2(O[C@@H](CCO)C[C@H](O)[C@H]2O)O1
Screen / compound no.	41	42	43	44
D2 ag	-4.4	-3.5	-2.2	-2.0
gsp agonist	5%	10%	-1%	0%
Menin-MLL FL inh	1.6	.	0.1	.
Sfp PPTase inh	18%	25%	9%	.
gsp antagonist	3%	-4%	-4%	13%
ClpP mod	80%	-1.2%	-3.6%	1.3%
PINK1 modulator	0.8%	-0.1%	1.5%	0.9%
